TsaE inh: YjeE (TsaE) inhibition, E. coli | P0AF67 | 0.05% of 71,000 active | purified YjeE, fluorescence polarisation of a bound ADP probe | Potency, µM | AID 605; active = well fitted falling curve; inconclusive = weaker or top-dose-only fall, or a rising curve; inactive = flat or poorly fitted curve;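 further: top concentration of the series not given in the record; excess ADP was the control for the full effect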
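Purified YjeE (10 uM) with BODIPY Texas Red-labeled ADP probe (2 uM); compounds pin-transferred, 15 min at room temperature. Binding inhibition read as decreased fluorescence polarization; ADP titration as control.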
PK Bst: pyruvate kinase (B. stearothermophilus) modulation. partly purified Bacillus stearothermophilus pyruvate kinase, luminescence ATP production; ribose 5-phosphate activator present at AC10. Potency, µM. 1.2% of 51,000 active; in the data active means potency below about 11 µM; inconclusive means mostly about 12 µM to 25 µM; inactive means weaker than that;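 the screen sought inhibitors and activators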;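 further: potency means the concentration at half of the fitted maximal effect; scaled between full activation by ribose 5 phosphate and full inhibition by luteolin; about four in five hits inhibit and the cells do not say which; series up to 57 µM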
* hit, by the source's call; i = inactive; ? = inconclusive; / = no result given. Not all compounds are listed, so the mix of outcomes need not match the whole.

canonical_smiles | TsaE inh | PK Bst
CC(Sc1ncc(C#N)c(N)n1)C(=O)Nc1ccccc1 (centres undefined) | i | >57
CN1CCN(Cc2nc3c(c(=O)n(C)c(=O)n3C)n2Cc2cccc3ccccc23)CC1 | i | >57
COC(=O)c1ccc(OC)c(CSc2nnc(COc3ccccc3)o2)c1 | i | >57
CCNC(=O)c1cc2c(=O)n3cccc(C)c3nc2n(CCc2ccccc2)c1=N | / | >11
CC(=O)Nc1nc(NC(C)=O)c2[nH]c(CO)nc2n1 | i | /
CCOc1ncccc1C(=O)OCCN1C(=O)c2ccccc2C1=O | i | >57
Cn1c(=O)c2c(nc(SCc3nn[nH]n3)n2Cc2ccccc2F)n(C)c1=O | i | >57
COc1ccc(Cc2noc(-c3ccc(OC)c(OC)c3)n2)cc1OC | i | >57
O=C(O)c1cccc(NC(=O)c2ccccc2)c1 | i | /
CCCCOc1ccc(OC(=O)c2cccnc2)cc1 | i | >57
COc1cccc2c(=O)n(CC(=O)Nc3cccc(F)c3)ccc12 | i | /
CCN1CCc2nc(SCC(=O)Nc3ccc(OC)cc3)c(C#N)cc2C1 | i | >57
COc1ccccc1OCc1nc(C#N)c(N2CCC(C(N)=O)CC2)o1 | i | >57
COCCCNC(=O)CC1Oc2ccccc2NC1=O (centres undefined) | i | /
Cc1ccc(NC(=O)c2cnn(-c3ccccc3)c2NC(=O)c2ccco2)cc1C | i | >57

Some values from above.
`Cn1c(=O)c2c(nc(SCc3nn[nH]n3)n2Cc2ccccc2F)n(C)c1=O` – PK Bst: >57
`COc1ccc(Cc2noc(-c3ccc(OC)c(OC)c3)n2)cc1OC` – PK Bst: >57

Other results:
canonical_smiles | TsaE inh | PK Bst
O=C(O)C1CC=CCC1C(=O)NCc1cn2ccccc2n1 (centres undefined) | i | /
COC(=O)c1ccc(Oc2cc(C)nc(NCc3ccccc3)n2)cc1 | i | >57
CC(C)n1c(C(=O)OCC(=O)NCc2ccc3c(c2)OCO3)cc2sccc21 | i | >57
O=C1CCCCCN1C(=O)c1ccc(C(=O)N2CCCCCC2=O)cc1 | i | >57
Cc1ccc(-n2c(=O)c3sccc3n(CC(=O)NCc3ccco3)c2=O)cc1 | i | >57
CC(C)COC(=O)COc1cc(Cl)c(Cl)cc1Cl | i | /
COCC(=O)N1CCC2(CC1)CCN(c1ccccn1)CC2 | i | /
CS(=O)(=O)Nc1cccc(-c2nc(NCc3cccs3)c3ccccc3n2)c1 | i | /
COc1ccc(S(=O)(=O)Nc2ccc3oc(C)c(C(=O)O)c3c2)cc1 | i | /
COc1cc(C(=O)O)ccc1OCC(=O)N1CCOCC1 | i | >57
COCC(=O)NCc1nc2ccccc2n1Cc1ccccc1F | i | >57
NC(=O)c1ccc(NC(=O)CCCc2nc(-c3ccccc3Cl)no2)cc1 | i | >57
CCCCNc1nc(N(C)c2ccccc2)nc(-n2ccnc2)n1 | i | >57
N#Cc1c(-n2cccc2/C=N/O)sc2c1CCCC2 | i | >57
CCCn1nc2ccccc2c1P(=N)(N1CCOCC1)N1CCOCC1 | i | >57
O=C1CCC(c2ccccc2)(c2ccccc2)CC1 | i | /
Cc1noc(C)c1C(=O)N1CCC2(CC1)CN(c1cccc(-c3ccccc3)c1)C2 | i | /
CC12CCC(C(=O)N3CCc4ccccc43)(CC1=O)C2(C)C (centres undefined) | i | >57
COc1ccc(-c2cc(=O)c3c(O)cc(O)cc3o2)cc1 | i | /
COc1ccccc1NC(=O)CSc1nnc(Cc2cccn2C)n1-c1ccc(F)cc1 | i | /
COc1cccc(-c2nccc(NC3CCNCC3)n2)c1 | i | /
COc1ccc(N(Cc2cc3cc(OC)ccc3[nH]c2=O)C(=O)C2CCCO2)cc1 (centres undefined) | i | /
Cc1ccc(-c2nn(CC(=O)Nc3ccc4c(c3)nc3n4CCOC3)c(=O)c3ccccc23)cc1 | i | >57
O=C(O)CSCCc1ccccc1 | i | /
CCOC(=O)Cn1c(=O)c2c(nc(N3CCCCC3)n2Cc2ccccc2)n(C)c1=O | i | >57
COc1ccc2noc3c2c1C(=O)c1ccccc1-3 | i | /
Nc1ncnc2c1ncn2[C@@H]1CCCO1 | i | /
C[C@@H]1[C@H]2CC[C@@H]3[C@@H]4CC=C5C[C@@H](N(C)C)CC[C@]5(C)[C@@H]4CC[C@@]32CN1C | i | /
COc1cccc(-n2c(SC3CCOC3=O)nc3ccccc3c2=O)c1 (centres undefined) | i | >57
O=C(c1cc2c(s1)CCCCC2)N1CCN(c2ncccn2)CC1 | i | >57

Another view of two compounds above:
TsaE inh,PK Bst,smiles
i,>57,COc1cccc(-n2c(SC3CCOC3=O)nc3ccccc3c2=O)c1 (centres undefined)
i,>57,O=C(c1cc2c(s1)CCCCC2)N1CCN(c2ncccn2)CC1

Continued.
canonical_smiles | TsaE inh | PK Bst
CCOC(=O)C(C(=O)OCC)=C1OC(=O)c2ccccc21 | i | /
CCc1ccc(C2CC(c3ccc(C)cc3)n3nc(N)nc3N2)cc1 (centres undefined) | i | /
CCOC(=O)CC1=NS(=O)(=O)c2ccccc2N1 | i | >57
N#Cc1c(N)nc(SCC(=O)OCc2ccccc2)c(C#N)c1-c1ccco1 | i | >57
C/C(=C1\SC(N2CCOCC2)=NC1=O)c1ccccc1 | i | /
COc1ccc(C(=O)COC(=O)CCn2nnc(-c3cccs3)n2)cc1 | i | >57
Cc1cc(C(=O)Nc2ccccn2)no1 | i | >57
COc1ccccc1C1/C(=C(/O)c2ccc(Cl)cc2)C(=O)C(=O)N1CCN1CCOCC1 (centres undefined) | i | >57
Cc1c(Nc2ncnc3nc[nH]c23)c(=O)n(-c2ccccc2)n1C | i | /
CCOC(=O)C1=C(C)NC(SCC(=O)O)=NC1c1ccccc1 (centres undefined) | i | >57
COc1cc(C(C)=O)ccc1OCC(O)CN1CCN(S(=O)(=O)c2ccccc2)CC1 (centres undefined) | i | >57
CCOc1ccc(Nc2nc(Cc3nnc(SCC(N)=O)o3)cs2)cc1 | i | /
O=c1cnc2cnc(Oc3cccc(Cl)c3)nc2n1CCc1ccccc1 | i | /
CN(C(=O)c1cccc(C#N)c1)c1nnc(C2CCOC2)s1 (centres undefined) | i | >57
CCCn1nnc(NC(=O)c2ccccc2Br)n1 | i | >57
O=C(O)c1ccccc1NS(=O)(=O)c1ccccc1C(F)(F)F | i | >57
Clc1ccc(Oc2cccc(/C=N/n3cnnc3)c2)cc1 | i | >57
CCN(CC)CC(C)CNC(=O)CC(C(=O)N1CCc2ccccc21)n1ccnc1 (centres undefined) | i | >57
CCOc1ccccc1-c1nn2c(Cc3ccccc3)nnc2s1 | i | /
COc1cc2c(cc1OC)C(C(=O)Nc1ccccn1)C(c1cccnc1)N(C)C2=O (centres undefined) | i | >57
O=C(CCc1ccccc1)Nc1ccncc1 | i | /
CC(C)(C#N)Nc1ccccc1 | i | >57
Cc1ccc(CSC(N)=Nc2ccccc2)cc1C | i | /
CSc1nnc(-c2ccc(F)cc2)o1 | i | /
COc1ccc(OC)c(CN2CCN(C(=O)c3cccc4ccccc34)CC2)c1 | i | 7.4*
CN(CC(=O)N1CCc2ccccc21)S(=O)(=O)c1ccc(Cl)cc1 | i | ?
CC(=O)OCCCN1C(=O)c2ccc(Br)cc2C1=O | i | >57
CCOc1ccccc1NC(=O)CSc1nnc(CNC(=O)c2ccco2)o1 | i | >57
CN(C(=O)CSc1nc(-c2ccc(F)cc2)cs1)C1CCS(=O)(=O)C1 (centres undefined) | i | /
COCC(=O)N(C)C1(c2nnnn2CCOC(=O)Nc2cccc3ccccc23)CCCC1 | i | >57
Cc1c(NC(=O)c2cc(-c3ccc4c(c3)OCO4)on2)c(=O)n(-c2ccccc2)n1C | i | >57
COc1ccc(Cc2nnc(NS(=O)(=O)Cc3ccccc3)s2)cc1 | i | >57
CCOC(=O)c1cnc(N(C)C)nc1SC(=N)N | i | /
Cc1cccc(NS(=O)(=O)c2cccc3cccnc23)n1 | i | /
Cc1ccc2cc(S(=O)(=O)NCCCC(=O)O)ccc2c1 | i | >57
CCSc1nnc(NC(=O)C2(C)Cc3ccccc3C(=O)O2)s1 (centres undefined) | i | >57
CCOC(=O)c1sc2nc(CSc3nc4ccccc4n3CC)[nH]c(=O)c2c1C | i | >57
CC(C)NC(=O)Cn1c(SCC(=O)N2CCCCCC2)nc2ccccc21 | i | >57
O=C(CN1C(=O)C2(OCCCO2)c2ccccc21)NCCc1ccccc1 | i | >57
O=C1CNCCCN2CCN(CCCNCC(=O)Nc3ccc(cc3)S(=O)(=O)c3ccc(cc3)NC(=O)CNCCCN3CCN(CCCNCC(=O)Nc4ccc(cc4)S(=O)(=O)c4ccc(cc4)N1)CC3)CC2 | i | /
Cc1ncc(CO)c(CN)c1O | i | /
CCOC(=O)c1ccc2c(c1)C(=O)N(C1CCCCC1)C2=O | i | /
Nc1c(NC2CCCCC2)c2ccccc2oc1=O | i | >57
C[n+]1cccc(/C=C\c2ccc3cccc(O)c3n2)c1 | i | /
O=C(c1ccco1)N1CCN(S(=O)(=O)c2ccc(S(=O)(=O)NC3CCCCC3)cc2)CC1 | i | >57
COc1cccc(NC(=O)N2CCC(N3CCCCC3)CC2)c1 | i | >57
Cc1ccc(NC(=O)c2oc3c(c2C)C(=O)CC(C)(C)C3)cc1 | i | >57
CC(C)=CCC/C(C)=C/C=O | i | /
CCCCSc1nn[nH]n1 | i | >57
COc1cccc(C(=O)Nc2ccc(N(C)C)cc2)c1OC | i | i
COc1ccc(S(=O)(=O)NCc2ccccn2)cc1Cl | i | >57
CC(=O)NC12CC3CC(C1)CC(C(=O)OCC(=O)NC(=O)c1cccn1C)(C3)C2 | i | >57
Cc1ccsc1C1NC(=O)c2ccccc2N1 (centres undefined) | i | >57
CC(=O)C1=C(O)C(=O)N(CCN2CCOCC2)C1c1ccc(N(C)C)cc1 (centres undefined) | i | ?
O=C(O)C1CCN(C(=O)c2ccccc2C(=O)N2CCC(C(=O)O)CC2)CC1 | i | >57
Cc1ccc(-c2noc(CN3CCC(C(N)=O)CC3)n2)cc1 | i | >57
Cc1ccc(C(=O)CSc2n[nH]c(-c3ccco3)n2)cc1C | i | /
O=C(c1ccc2nc(N3CCOCC3)sc2c1)N1CCCC1 | i | /
COc1ccc(/C=N/n2c(SC)nnc2-c2ccccc2)cc1C | i | /
COCc1[nH]nc2c1C1(C(=O)N(C)c3ccccc31)C(C#N)=C(N)O2 (centres undefined) | i | >57

New compounds follow:
canonical_smiles | TsaE inh | PK Bst
N[C@@H](CC1=CS(=O)(=O)c2ccc(Cl)cc21)C(=O)O | i | /
CC1CCN(CCc2nc3cc(NS(=O)(=O)c4ccccc4)ccc3n2C)CC1 | i | >57
Cc1[nH]c2ccccc2c1C1(O)C(=O)N(Cc2ccc3c(c2)OCO3)c2ccccc21 (centres undefined) | i | >57
O=C(NCC(=O)N(CC1CCCO1)C(C(=O)NC1CCCC1)c1cccnc1)c1ccco1 (centres undefined) | i | >57
NS(=O)(=O)c1ccc(NC2(C(=O)O)CCCC2)cc1 | i | /
COc1ccc2oc(=O)c(C(=O)N3CCN(c4ccccc4C)CC3)cc2c1 | i | /
CCc1ccc(NC(=O)c2cc(-c3ccco3)on2)cc1 | i | >57
COc1ccc(CCNc2oc(COc3ccccc3Cl)nc2C#N)cc1OC | i | /
C=CCn1c(SCC(=O)/C(C#N)=C(\C)N)nnc1C1CCCCC1 | i | >57
COC(=O)CSc1nnc(CNC(=O)c2ccc(OC)cc2OC)n1C | i | >57
CC(C)Cn1c2c(c(O)c(C(=O)Nc3ccc(F)cc3)c1=O)CCCC2 | i | >57
OCC(CO)(CBr)CBr | i | /
CC(C)c1ccc(-c2nn[nH]n2)cc1 | i | i
O=C(NCc1ccc2c(c1)OCO2)c1cc(S(=O)(=O)N2CCCCC2)ccc1F | i | >57
Cn1c(=O)oc2cc(S(=O)(=O)N3CCC(C(=O)N4CC=C(c5ccccc5)CC4)CC3)ccc21 | i | /
CN1C2C=C3C(C#N)=C(N)C(C#N)(C#N)[C@@H](c4ccc(Cl)cc4)[C@@H]3C1CC2 (some centres undefined) | / | >26
Cc1cc(=O)oc2cc(OCc3ccc(S(=O)(=O)N4CCOCC4)cc3)ccc12 | i | >57
Oc1c(CN2CCN(c3ccccn3)CC2)cc(Cl)c2cccnc12 | i | i
CN(c1nc(-c2ccccc2)cs1)C1CCS(=O)(=O)C1 (centres undefined) | i | /
N#CCCCSC1=C(C#N)C(c2ccccc2Cl)CC(=O)N1 (centres undefined) | i | /
Cc1onc(-c2ccccc2Cl)c1C(=O)Nc1nnc(-c2ccc(F)cc2)s1 | i | /
CCOc1ccc(NC(=O)c2cccc(-n3cnnn3)c2)cc1 | i | >57
COc1cc(NC(=O)c2cccc(Cl)c2)c(OC)cc1NC(=O)CN1CCOCC1 | i | >57
Cc1cnc(CNc2ncncc2-c2ccc3c(c2)OCO3)cn1 | i | /
COC(=O)CSc1ncnc2c1cnn2Cc1ccccc1 | i | >57
CCc1ccccc1NC(=O)N1C2CCCC1CC(NC(C)=O)C2 (centres undefined) | i | >57
c1nc(NC2CCNCC2)c2cc(-c3ccc4c(c3)OCO4)ccc2n1 | i | /
